# A488 autofl = qHTS Assay for Spectroscopic Profiling in A488 Spectral Region | max dye equivalency, M | AID 591, 2007 | compound autofluorescence, A488 spectral region, dye equivalency; stronger effect = higher value | hit rate 0.1% among 59,000; active = above 10 nM dye equivalent; inconclusive = 1 to 10 nM; inactive = 1 nM or less; about half of its hits are not listed in these tables;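 further: highest value over a series up to 38 µM; compound alone in buffer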
#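 Spectroscopic profiling in the A488 region: compounds in pH 8.0 Tris (100 mM), 15 min RT, CCD imaging with 480 nm excitation and 540 nm emission; responses normalized against A488 dye standards.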
# A647 fluor = qHTS Assay for Spectroscopic Profiling in A647 Spectral Region; AID 592, 2007; max dye-equivalent concentration, M; 59,000 tested, under 10 active; Compound fluorescence, A647 channel (570/671 nm), Tris buffer; active means above 1 µM dye equivalent; inconclusive means 0.1 to 1 µM; inactive means 0.1 µM or less;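 further: values scaled relative to a standard on each plate; highest value over a series up to 38 µM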
#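 Buffer was dispensed, compounds and Alexa 647 standards were pin-transferred, and plates sat 15 min at room temperature. Intensity at 570/671 nm was then converted to dye-equivalent concentration using the plate's A647 standard curve.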
# Resorufin fluor = qHTS Assay for Spectroscopic Profiling in Resorufin Spectral Region; Compound fluorescence, resorufin region 547/598 nm, buffer; stronger effect = higher value; max dye-equivalent concentration, M; hit rate 0.04% among 59,000; AID 588, 2007; active = above 10 nM dye equivalent; inconclusive = 1 to 10 nM; inactive = 1 nM or less; a few of its hits are not listed in these tables; further: highest value over a series up to 38 µM
#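 Compounds in 100 mM Tris buffer, pH 8.0, incubated 15 min at room temperature, then read with 547 nm excitation and 598 nm emission filters. Fluorescence was converted to dye-equivalent concentration using an on-plate six-point resorufin standard curve.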
# TSHR ag = qHTS Assay for Agonists of the Thyroid Stimulating Hormone Receptor. Thyrotropin receptor (Homo sapiens), P16473. HEK293-CNG-TSHR cells (CNG channel as cAMP sensor), membrane potential dye, cAMP. Potency, µM (top dose mostly 57.1 µM), for inactives: at the top dose activation, usual class: activators. hit rate 0.48% among 73,000. AID 926, 2007; active = well fitted activation curve of enough size with the parental cells flat; inconclusive = any curve in the parental cells; inactive = parental cells flat and receptor cells flat or falling; further: potency means the concentration at half of the fitted maximal effect; % of control where 0% means no effect; weak receptor curves with flat parental cells got no call and are not listed
# Target sequence (P16473 whole entry, looked up): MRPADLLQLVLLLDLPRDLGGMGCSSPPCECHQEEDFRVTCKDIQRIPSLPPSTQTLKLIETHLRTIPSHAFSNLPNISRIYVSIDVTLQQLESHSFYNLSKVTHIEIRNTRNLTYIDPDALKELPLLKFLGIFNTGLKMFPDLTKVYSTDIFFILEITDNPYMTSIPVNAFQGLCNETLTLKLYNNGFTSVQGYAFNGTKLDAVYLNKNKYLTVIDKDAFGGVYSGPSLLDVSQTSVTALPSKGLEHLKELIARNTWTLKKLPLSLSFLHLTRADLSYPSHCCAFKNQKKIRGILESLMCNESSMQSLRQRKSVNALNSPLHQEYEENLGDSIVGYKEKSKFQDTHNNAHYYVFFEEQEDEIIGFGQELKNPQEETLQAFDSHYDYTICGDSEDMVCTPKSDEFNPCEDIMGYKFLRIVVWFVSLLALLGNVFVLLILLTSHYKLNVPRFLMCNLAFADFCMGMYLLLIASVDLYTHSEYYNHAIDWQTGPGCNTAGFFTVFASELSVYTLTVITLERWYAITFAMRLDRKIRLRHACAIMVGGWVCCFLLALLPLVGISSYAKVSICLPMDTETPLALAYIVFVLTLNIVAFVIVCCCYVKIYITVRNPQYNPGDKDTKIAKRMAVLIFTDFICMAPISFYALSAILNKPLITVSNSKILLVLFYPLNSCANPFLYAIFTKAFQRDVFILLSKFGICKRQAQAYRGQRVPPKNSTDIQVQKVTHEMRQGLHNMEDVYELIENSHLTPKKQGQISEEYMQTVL
#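 cAMP rise detected as CNG-channel membrane depolarization by fluorescent dye (emission 590 nm), 30 min after compound, following 60 min dye loading containing 100 uM RO 20-1724 at room temperature. Cells: TSHR/CNG HEK 293, with parental CNG HEK 293 as control.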
# AID923 = qHTS Assay for Allosteric/Competitive Inhibitors of Caspase-1: Spectroscopic Profiling in AFC Spectral Region; Potency, µM (highest dose often 57.5 µM), for the others: at the top dose fluorescence increase, most hits filed as activators; hit rate 1.1% among 75,000; AID 923, 2007; compound fluorescence, AFC spectral region (405/520 nm); almost no hit is shown here; active means well fitted activation curve with a large enough effect; inconclusive means small, poorly fitted or top-dose-only effect;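 further: potency means the concentration at half of the fitted maximal effect; 0% is about no effect; scaled to a free AFC standard on each plate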
#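 Baseline compound fluorescence (AFC region, 405 nm ex/520 nm em) taken from the intercept of kinetic reads with 50 nM caspase-1 and 5 uM Ac-WEHD-AFC; normalized to an on-plate AFC standard curve; compounds titrated up to 57 uM.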
# * hit, by the source's call; i = inactive; u = inconclusive; x = no result given; [ ] = dose if it differs, or a comment. A portion of the library; count on the stated rates, not on these rows.
SMILES,A488 autofl,A647 fluor,Resorufin fluor,TSHR ag,AID923
CC(=O)O[C@H]1C2=CO[C@H](C)[C@H]3[C@H]4C5=C([C@H](O)[C@H]6O[C@@H]6C5=O)[C@H](O[C@H]4C)[C@@]23C(=O)[C@H]2O[C@@H]21,x,x,x,-3%[11.4 µM],1.6%[11.5 µM]
Cc1nnc2sc(-c3ccccn3)nn12,i,9.4e-09,i,2%,0.5%
CCOC(=O)c1c(NC(=O)CN2CCOCC2)sc2c1CC(C)(C)OC2,i,1.3e-09,i,x,x
CC(C)CCOc1cccc(C2c3c(oc4ccccc4c3=O)C(=O)N2CCCN2CCOCC2)c1 (stereo not given),x,x,x,5%,1.2%
COc1ccc(CCNC(=O)CCn2c(=O)[nH]c3cc(OC)c(OC)cc3c2=O)cc1OC,i,1e-09,i,10%,2.3%
CCOC(=O)c1cccc(NC(=O)CCS(=O)(=O)c2cccs2)c1,i,1e-09,i,-6%[11.4 µM],-0.6%
O=C1CCC(C(=O)OCC(=O)C23CC4CC(CC(C4)C2)C3)N1 (stereo not given),i,2.7e-08,i,2%,0.2%
Cc1ccc(CCN2CC(C(=O)NCCCN3CCN(C)CC3)CC2=O)cc1 (stereo not given),x,x,x,12%,3.1%
Cc1nc2nc(CSc3nc4ccccc4s3)cc(=O)n2[nH]1,i,5.4e-09,i,x,0.7%
Cc1cnc(CNc2nc(-c3cccnc3)nc3ccccc23)cn1,i,1.9e-09,i,3%,0.5%
O=C(CSc1nc2ccccc2[nH]1)c1cccs1,i,1e-09,i,3%,0.6%
O=C(CN1CCCCCC1)Nc1ccc(F)c(F)c1F,i,1e-09,i,-1%,-1.6%
CCSc1nc(-c2cccs2)nc2c1c(=O)n(C)c(=O)n2C,x,x,x,0%,-2.2%
O=C(NCC1CCCO1)C(C(=O)c1ccccc1)n1cc(Cl)ccc1=O (stereo not given),i,3.6e-09,i,1%,0.3%
CC(C)c1ccc(N2CC(C(=O)Nc3nccs3)CC2=O)cc1 (stereo not given),i,1e-09,i,4%,1.9%
COc1ccccc1NC(=O)N(Cc1ccc2c(c1)OCO2)Cc1nc2ccccc2c(=O)[nH]1,i,3e-09,i,u,-1.3%
CCn1c(SCC(=O)Nc2ccc(C(=O)OC)cc2)nnc1-c1cccs1,i,5.3e-09,i,15%,-0.9%
CCOC(=O)Nc1ccc(OC)cc1S(=O)(=O)N1CCCCC1,i,2e-09,i,2%,1.5%
CCOc1cc(C)c(C(C)C)cc1S(=O)(=O)NCc1ccccn1,i,2.6e-08,i,9%,-1.9%
CO[C@H]1COC(=O)[C@H](C)NC(=O)C/C=C\[C@@H](C)[C@@H](NS(=O)(=O)c2ccc(C)cc2)COC(=O)[C@H](OCc2ccccc2)/C=C\[C@@H]1C,x,x,x,-3%[11.4 µM],1.3%[11.5 µM]
O=C1C(C=NCCCn2ccnc2)=C(O)c2ccccc21,x,x,x,-3%[11.4 µM],2.8%
CCOC(=O)c1c(NC(=O)OC)sc(C(=O)N(C)C)c1C,x,x,x,11%[11.4 µM],0.2%
COC(=O)c1[nH]c2ccc(C)cc2c1NC(=O)Nc1ccccc1OC,i,5.1e-08,i,-19%,-1.1%
O=C(CCCn1c(=O)c2ccccc2n(CC(=O)NCc2ccco2)c1=O)NCc1ccco1,i,8.9e-09,i,22%,-0.4%
Cn1c(N2CCN(C(=O)Nc3ccc(C(F)(F)F)cc3)CC2)nc2ccccc21,i,8.2e-09,i,14%,-1.2%
CC(=O)N1CCN(S(=O)(=O)c2ccc(C)cc2)C1c1ccc(N(C)C)cc1 (stereo not given),x,x,x,9%,2.4%
Cc1ccccc1CS(=O)(=O)CCC(=O)NCCCN1CCN(c2ccccc2F)CC1,i,1e-09,i,5%,-1.0%
O=C(O)C1CC(=O)n2c(nc3ccccc32)S1 (stereo not given),i,4.5e-08,i,x,x
O=C1N(S(=O)(=O)c2ccccc2F)C(=O)C2(CCCC2)N1S(=O)(=O)c1ccccc1F,i,1.3e-09,i,11%,-0.5%
COC(=O)c1c(C(=O)OC)c2ccncn2c1Cl,i,5.4e-09,i,u,-0.8%
Cc1cccc(NC(=O)C2CCCN2S(=O)(=O)c2cccc3cccnc23)c1 (stereo not given),x,x,x,8%,3.3%
Cn1c(Cn2nnc3ccccc32)nnc1SCC(=O)N1c2ccccc2CCc2ccccc21,i,1.2e-09,i,6%,0.2%
Cn1c(NC(=O)c2ccc(C(C)(C)C)cc2)cc(=O)n(C)c1=O,x,x,x,u,-1.9%
CCN(CC)C(=O)CSc1nnc(-c2cccs2)n1Cc1ccco1,i,1e-09,i,4%,-0.6%
Cn1cccc1C(=O)N1CCC2(CCCN(c3ccncc3)C2)CC1,i,1.5e-09,i,18%,2.6%
Cc1nc(N2CCN(c3ccccc3)CC2)[nH]c(=O)c1Cc1cccc2ccccc12,i,2e-08,i,-10%,2.7%
Cc1ccc2[nH]c(=O)c(C(c3nnnn3CCc3ccccc3)N3CCOCC3)cc2c1 (stereo not given),i,1.4e-08,i,-1%,2.6%
O=S(=O)(Cc1ccccc1)N1CCc2ccccc2C1,x,x,x,22%,3.3%
COC(=O)CC(=O)CSc1nc2c(cc1C#N)CCCCC2,i,1.3e-09,i,-3%,21%
O=C(CSc1nnc(CNC(=O)c2ccco2)o1)NC1CCCC1,i,1.2e-08,i,0%[11.4 µM],-1.1%
Cc1ccc(C(=O)Nc2nnc(-c3cccs3)s2)cc1C,i,2.8e-08,i,10%,0.3%
O=C(c1ccco1)c1cn(CC(=O)N2CCCc3ccccc32)c2ccccc12,i,2.7e-08,i,u,-0.2%
CC(C)(C)c1cc(/C=C(\C#N)C(N)=S)cc(C(C)(C)C)c1O,i,7.9e-09,i,u,-3.3%
C1=C(C(c2nnnn2C2CCCCC2)N2CCCCC2)COc2ccccc21 (stereo not given),i,3.2e-08,i,u,-0.2%
Cc1ccccc1-n1ncc2c(SCC(=O)NCc3cccs3)ncnc21,i,5.8e-08,i,x,0.9%
Cc1ccc(S(=O)(=O)N2CCN(Cc3cc(C(C)C)ccc3O)CC2)cc1,i,1e-09,i,1%,0.1%
C#CCCCO/N=C1/[C@H]2O[C@@H]2[C@@H](O)[C@H]2[C@H]1CCn1c(=O)n([C@@H](CC)c3ccccc3)c(=O)n12,x,x,x,-6%[11.4 µM],2.4%[11.5 µM]
FC(F)(F)c1cccc(CN2CCCCCC2)c1,x,x,x,10%,8.5%
Cc1ccnc(SCC(=O)N2CCC(C(N)=O)CC2)n1,i,6.3e-09,i,26%,-1.9%
Fc1ccccc1N1CCN(C(c2ccncc2)c2nnnn2C2CCCC2)CC1 (stereo not given),i,2.9e-08,i,u,1.1%
O=C(COc1ccc(S(=O)(=O)NC2CCCCC2)cc1Cl)NCc1cccnc1,i,1e-09,i,5%,-1.3%
COc1ncc2nc(C)c(=O)n(C3CC3)c2n1,i,1.4e-08,i,23%,6.6%
O=C(CCC(=O)c1cccs1)OCC(=O)c1ccc(Cl)s1,i,6.1e-09,i,3%,0.9%
COc1cc(N)c(Cl)cc1C(=O)NC1CCN(Cc2ccccc2)CC1,i,4.8e-08,i,-16%[25.6 µM],1.0%
O=C(O)CCSCC(=O)Nc1c(C(=O)C2CC2)oc2ccccc12,i,3.1e-08,i,9%,-1.4%
O=C(NC1CCCc2ccccc21)C1CCN(S(=O)(=O)c2cnc[nH]2)CC1 (stereo not given),i,4.9e-09,i,4%,-2.4%
Cn1ccnc1Sc1nc(Nc2cccc(Cl)c2)nc(N2CCOCC2)n1,x,x,x,15%,-1.8%
COc1ccc(NC(=O)CSc2nnc(-c3ccncc3)n2CC2CCCO2)c(OC)c1 (stereo not given),i,4.3e-09,i,-2%,0.3%
COc1ccc(OC)c(NC(=O)c2ccc(CN3CCOCC3)cc2)c1,x,x,x,0%,0.7%
Cc1cc(C)n2nc(C(=O)OCC(=O)Nc3ccc4c(c3)OCO4)nc2n1,i,1e-09,i,-2%,-0.8%
# (list continues)
SMILES,A488 autofl,A647 fluor,Resorufin fluor,TSHR ag,AID923
c1ccc2c3nnc4n(c-3nc2c1)CCCS4,i,1.3e-08,i,-1%,0.1%
O=C(Nc1nccs1)C1CCCN1S(=O)(=O)c1ccc(F)cc1 (stereo not given),i,1e-09,i,-7%,1.8%
CN(C)c1ccc(C(=O)Nc2nc3c(s2)CCCC3)cc1,x,x,x,-5%,1.5%
Cc1ccc(S(=O)(=O)N2CCC(C(=O)Nc3nnc(COc4ccccc4)s3)CC2)cc1,i,2.6e-08,i,-2%,3.4%
C[C@@H](CNC1CCCCC1)OC(=O)c1ccccc1,i,3.7e-08,i,59%[25.6 µM],-0.5%[25.7 µM]
CCCCCOC(=O)CSc1nc2c(c(=O)[nH]c(=O)n2C)n1Cc1ccc(Cl)cc1,x,x,x,14%[11.4 µM],-0.4%
CCOC(=O)c1sc(NC(=O)C2CCCO2)c(C(=O)OC)c1C (stereo not given),i,1.6e-09,i,10%,2.0%
Cc1nnc2n1N=CC=C(c1ccccc1)S2,i,1.2e-08,i,3%,-2.4%
CC[C@H](NC(=O)c1c(C)c(-c2ccccc2)nc2ccccc12)c1ccccc1,i,4.5e-08,i,u,-3.6%
c1ccc2c(c1)OCC(CNc1ncnc3nc[nH]c13)O2 (stereo not given),x,x,x,7%,-5.1%
CC(=Nc1ccc(O)cc1)c1sc2ccccc2c1O,u,4.7e-09,i,u,7.1%
COC(=O)[C@H](CCSC)NC(=O)Nc1ccc(C(C)C)cc1,i,2.5e-08,i,1%,0.3%
Cc1ccccc1-c1cncnc1NC1CCNCC1,i,1e-09,i,-2%,-0.4%
CN1C(=O)CC(N2CCC(c3nc4ccccc4s3)CC2)C1=O (stereo not given),i,3.5e-09,i,-7%,-0.8%
CCn1c(SCc2nc3ccccc3s2)nnc1-c1cccs1,i,2.2e-08,i,9%,2.2%
COc1ccccc1N1CCN(C(=O)c2nn(-c3ccccc3OC)c(=O)c3ccccc23)CC1,i,5.8e-09,i,-2%[11.4 µM],-1.2%
C=CCn1c(Sc2nnc(C)s2)nc2c1c(=O)[nH]c(=O)n2C,i,1e-09,i,0%,1.5%
Cn1c(=O)oc2cc(S(=O)(=O)N3CCOCC3)ccc21,i,2.7e-08,i,0%,0.1%
CCC(=O)O[C@@H]1[C@H](C)O[C@H](O[C@H]2[C@@H](N(C)C)[C@H](O)[C@@H](O[C@@H]3[C@@H](CC=O)C[C@@H](C)[C@@H](O)/C=C\C=C/C[C@@H](C)OC(=O)C[C@@H](OC(=O)CC)[C@H]3OC)O[C@H]2C)C[C@]1(C)O,i,5.9e-09,i,-17%[25.6 µM],-2.6%[25.7 µM]
COc1ccccc1-c1nnc2n1N=C(C(C)(C)C)CS2,i,3.1e-08,i,x,1.4%
O=C(O)C1CC(c2ccccc2F)=NO1 (stereo not given),i,1e-09,i,4%,0.0%
O=C(CSc1nnc(CNC(=O)c2cccs2)o1)c1ccc(Cl)cc1,i,2.8e-08,i,12%[11.4 µM],1.0%

# Laid out differently: 5 of the compounds above
# Values run as follows: A488 autofl, A647 fluor, Resorufin fluor, TSHR ag, AID923
c1ccc2c3nnc4n(c-3nc2c1)CCCS4
    i, 1.3e-08, i, -1%, 0.1%
O=C(Nc1nccs1)C1CCCN1S(=O)(=O)c1ccc(F)cc1 (stereo not given)
    i, 1e-09, i, -7%, 1.8%
CN(C)c1ccc(C(=O)Nc2nc3c(s2)CCCC3)cc1
    x, x, x, -5%, 1.5%
Cc1ccc(S(=O)(=O)N2CCC(C(=O)Nc3nnc(COc4ccccc4)s3)CC2)cc1
    i, 2.6e-08, i, -2%, 3.4%
C[C@@H](CNC1CCCCC1)OC(=O)c1ccccc1
    i, 3.7e-08, i, 59%[25.6 µM], -0.5%[25.7 µM]
